# Rango-impB inh: prevents formation of the Rango-importin beta complex. Rango CFP/YFP FRET sensor + importin beta, 45 min. Potency, µM (titrated, usually from 92.2 µM), for the others: at the top dose inhibition of complex formation. hit rate 0.031% among 340,000. AID 540263; active = rising FRET ratio curve, often small or poorly fitted; inconclusive = mostly compound fluorescence or quenching in the first reads; inactive = flat curves in all reads;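 also: potency is read from the fitted curve at half-maximal effect; 0% = DMSO wells and 100% = buffer wells lacking importin beta; nearly all actives have a fitted effect of over 15% in size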
#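 Inhibition scored from the CFP 486 nm/YFP 530 nm FRET ratio 45 min after adding 0.125 microM importin beta to 50 nM Rango biosensor preincubated 5 min with compound (room temperature, PBS with DTT, Tween-20, BSA). No-importin wells as positive control.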
# miR-21 FLuc: raises the signal of a miR-21 reporter; AID 2288; HeLa miR-21 FLuc reporter, luciferase, 48 h; 340,000 tested, under 10 active; Potency, µM (doses to about 38.3 µM), inactives show top-dose reporter change, positive = more light; active = well fitted rising curve with a large enough effect; inconclusive = small, poorly fitted or top-dose-only effect; inactive = no such curve, though single readings can be large or run the other way;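 also: % of control where 0% means no effect; miR-21 action dims this reporter so a rising signal means less miR-21 action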
#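 Using DMEM plus 10% FBS, HeLa miR-21-FLuc cells are incubated with test compounds (final up to about 40uM) for 48 hours; firefly luciferase signal is then imaged following reagent-mediated lysis.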
# GLA inh pH 4.5: blocks human alpha-galactosidase A at pH 4.5; P06280; purified enzyme, 4-MU-alpha-Gal fluorescence, pH 4.5; activity change, negative = inhibition, % at 105 µM; 230,000 tested, under 10 active; inconclusive = small, poorly fitted or top-dose-only inhibition, or a rising curve; inactive = flat fitted curve, though single readings scatter; no compound was filed as active;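 also: 0% = full activity with enzyme and -100% = basal without enzyme; dose as in the result columns while the protocol names 77 µM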
# Target sequence (P06280 whole entry, looked up): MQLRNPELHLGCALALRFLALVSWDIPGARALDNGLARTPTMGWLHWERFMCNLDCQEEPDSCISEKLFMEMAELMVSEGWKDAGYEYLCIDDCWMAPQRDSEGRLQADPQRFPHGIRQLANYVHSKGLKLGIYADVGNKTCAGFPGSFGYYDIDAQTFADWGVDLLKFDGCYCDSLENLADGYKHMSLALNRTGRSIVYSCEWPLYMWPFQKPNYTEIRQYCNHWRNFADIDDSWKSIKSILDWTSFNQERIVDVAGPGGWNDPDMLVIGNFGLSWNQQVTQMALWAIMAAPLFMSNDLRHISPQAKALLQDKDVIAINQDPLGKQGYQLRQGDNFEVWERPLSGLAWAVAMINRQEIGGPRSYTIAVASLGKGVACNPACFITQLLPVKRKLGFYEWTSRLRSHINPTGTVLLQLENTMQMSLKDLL
# Rango dissoc inh: inhibitors of RanGTP-induced Rango-importin beta complex dissociation; AID 540253; Biochemical FRET Rango-importin beta, RanGTP-induced dissociation; Potency, µM (series often up to 46.1 µM), without a hit: at the highest dose activity change, negative = inhibition; hit rate 0.071% among 340,000; active means falling FRET ratio curve, often poorly fitted, with flat reads before Ran was added; inconclusive means other falling curves, or compound fluorescence or quenching; inactive means flat or rising ratio curve;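 also: potency is read from the fitted curve at half-maximal effect; % of control where 0% means no effect; nearly all actives have a fitted effect of over 45% in size; -100% = wells without RanGTP and RCC1; the record marks most hits as doubtful in a second field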
#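 Rango FRET biosensor (snurportin-1 IBB flanked by N-terminal EYFP and C-terminal CFP10) at 0.1 uM, with 0.25 uM importin beta in PBS, 1mM DTT, 0.02% Tween-20, 0.1% BSA. 0.6 uM Ran, 2mM GTP and 0.2 uM RCC1 were then added for 45 min at room temperature. Inhibition read as loss of FRET rise.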
# The depositor's hits bear a star; ? = inconclusive; . = no result given. The list is partial; the hit share may differ from the screen's.
Rango-impB inh	miR-21 FLuc	GLA inh pH 4.5	Rango dissoc inh	SMILES
-3.7%	-8%	3	1%	COc1ccc(C2CC(=O)C=C(NCc3ccc4c(c3)OCO4)C2)cc1 (centres undefined)
-0.7%	.	.	-6%	Cc1ccc(S(=O)(=O)NCCC(=O)NC2CCCCCC2)cc1C
0.7%	.	.	-22%	Cc1ccccc1C(=O)NC(CC(C)C)C(=O)NCC(C)(C)N1CCOCC1 (centres undefined)
-1.3%	-9%	.	-16%	O=C(CCc1c[nH]c2ccccc12)NCCc1ccc2c(c1)OCCO2
?	-6%	.	-9%	O=C(CNC(=O)c1ccc(Cl)cc1Cl)NCC1CCCO1 (centres undefined)
0.3%	-2%	-4	-10%	O=S(=O)(NCc1csc(-c2cccnc2)n1)c1ccc2c(c1)OCCO2
-2.3%	-7%	-3	2%	COc1ccc(N2CC(C)Cn3c2nc2c3c(=O)n(CCN3CCOCC3)c(=O)n2C)cc1 (centres undefined)
2.8%	1%	.	-6%	Cn1c(=O)c2c(SCC(=O)N3CCCCC3)nc(-c3ccccc3F)nc2n(C)c1=O
0.8%	-10%	8	0%	CCCOCn1cc(F)c(=O)[nH]c1=O
5.6%	5%	9	11%	C=CCN(c1ccccc1C(=O)O)S(=O)(=O)c1ccc(NC(=O)OC)cc1
-2.0%	-14%	-6	1%	CCOc1ccc(/C(O)=C2/C(=O)C(=O)N(CCOCCO)C2c2ccccn2)cc1 (centres undefined)
0.7%	.	.	-12%	COc1ccc(CC(=O)OCC(=O)c2c(N)n(C)c(=O)n(C)c2=O)cc1OC
0.4%	.	.	6%	COc1ccc(-c2oc(=O)c3cc(OC)c(OC)cc3c2/C=C/c2cccc([N+](=O)[O-])c2)cc1
-2.0%	-12%	-5	13%	CC1=C(C(=O)OC(C)C)C(c2cn(-c3ccccc3)nc2-c2cccs2)NC(=O)N1 (centres undefined)
-5.5%	2%	2	19%	O=C(NCc1ccc2c(c1)OCO2)C1CC(c2ccccc2O)=NO1 (centres undefined)
?	-10%	13	?	COc1ccc(-c2ccc(-c3noc(-c4cccs4)n3)c(OC)n2)cc1
-2.0%	-43%	-3	9%	O=C(N/N=C/c1ccc(Br)s1)c1c[nH]c2ccccc12
-6.0%	2%	6	14%	O=C(CSc1nnc(Cc2ccccc2)o1)N1CCOCC1
5.8%	-13%	11	14%	CCOC(=O)c1c(-c2ccc(C)cc2)cn2ccccc12
0.3%	-1%	0	4%	O=c1[nH]c(C(F)(F)F)nc2ccccc12
0.5%	-1%	.	1%	COc1ccc(CCC(=O)NCC(=O)OCc2ccccc2)cc1
-0.4%	1%	.	-2%	CS(=O)(=O)N(CC(=O)N1CCCC1)c1ccc(Cl)cc1Cl
-2.8%	-49%	.	1%	CC(c1ccccn1)N(C)C(=O)c1ccc2nc(Cc3cccc(Cl)c3)oc2c1 (centres undefined)
?	-5%	-10	-20%	COc1cc(C2CC(=O)N3CN(Cc4ccco4)CSC3=C2C#N)ccc1OCc1ccccc1 (centres undefined)

# Sorted by the number under Rango-impB inh (highest first): some entries from above
Rango-impB inh	miR-21 FLuc	GLA inh pH 4.5	Rango dissoc inh	SMILES
0.5%	-1%	.	1%	COc1ccc(CCC(=O)NCC(=O)OCc2ccccc2)cc1
-0.4%	1%	.	-2%	CS(=O)(=O)N(CC(=O)N1CCCC1)c1ccc(Cl)cc1Cl
-2.0%	-43%	-3	9%	O=C(N/N=C/c1ccc(Br)s1)c1c[nH]c2ccccc12
-6.0%	2%	6	14%	O=C(CSc1nnc(Cc2ccccc2)o1)N1CCOCC1

# (more compounds)
Rango-impB inh	miR-21 FLuc	GLA inh pH 4.5	Rango dissoc inh	SMILES
-1.3%	2%	3	4%	Cc1ccc(CSCc2ccc(C(=O)NCCCN3CCOCC3)o2)cc1
0.7%	.	.	3%	c1ccc2c(c1)CSc1ccccc1N2
1.9%	5%	-4	-9%	COc1ccc(C(CC(=O)N2CCCCC2)c2c(O)cc(OC)cc2OC)cc1 (centres undefined)
-1.8%	.	.	-8%	CCOC(=O)c1c(C)[nH]c(C)c1C(=O)COC(=O)/C=C/c1ccco1
-2.1%	6%	1	-9%	CCNC(=S)NNC(=O)c1ccccn1
-2.4%	.	.	9%	CC(C)NC(=O)N(C)C[C@H]1Oc2ccc(NS(=O)(=O)c3ccc(Cl)cc3)cc2CC(=O)N([C@@H](C)CO)C[C@@H]1C
-0.6%	-9%	4	10%	CC(C)n1c(C(O)c2ccccc2)nc2ccccc21 (centres undefined)
-6.8%	-3%	-2	7%	CCOC(=O)C1CCN(Cc2ccc(Cl)c(Cl)c2)CC1
5.9%	-2%	5	-9%	CC(=O)NS(=O)(=O)c1ccc(NC(=O)/C=C/c2cn(-c3ccccc3)nc2-c2ccccc2)cc1
1.9%	-6%	-1	18%	O=C(Cn1c(=O)[nH]c2ccsc2c1=O)NC1CCCCCC1
2.8%	-2%	1	1%	CC1CCCCC1NC(=O)CSc1nnnn1-c1ccccc1 (centres undefined)
2.1%	-50%	-15	-1%	CC1=NN(C(=O)c2ccco2)C(O)(c2ccccc2)C1 (centres undefined)
-1.1%	-13%	10	-5%	COCC(=O)Nc1nc(-c2ccccc2)c(C)s1
1.1%	-9%	2	5%	O=C(NNC(=O)c1cc(-c2ccccc2)n(-c2ccccc2)n1)c1cccc([N+](=O)[O-])c1
0.4%	-6%	.	10%	Cc1ccc(N(CC(O)CN2CCCCC2)S(=O)(=O)c2ccc(C)cc2)cc1 (centres undefined)
?	-1%	.	?	Cc1ccc(S(=O)(=O)/N=C2/NC(=O)/C(=C/c3cc([N+](=O)[O-])ccc3O)S2)cc1
-2.4%	0%	.	-10%	CCOn1c(=O)c(-c2cccc(Br)c2)[n+]([O-])c2ccccc21
-0.9%	0%	6	12%	O=C(CN(Cc1cccs1)C(=O)CNS(=O)(=O)c1ccccc1)NCc1ccco1
2.7%	-11%	2	-6%	CC(=O)Oc1ccc(N(C(C)=O)S(=O)(=O)c2ccc(C)c([N+](=O)[O-])c2)cc1
-1.6%	12%	.	1%	Cc1cc(=O)oc2cc(OCC(=O)Nc3c(Cl)cccc3C(F)(F)F)ccc12
?	27%	-9	-8%	COc1ccc(C(NC(=O)C(C)C)c2ccc3cccnc3c2O)cc1 (centres undefined)
0.8%	-3%	4	3%	Cn1c(NCCN2CCCCC2)cc(=O)n(C)c1=O
-3.4%	2%	-3	0%	CCOC(=O)c1c(C)oc(C)c(C(=O)OCC)c1=O
-0.4%	.	.	18%	O=C(NCC1CCCO1)c1cccc(S(=O)(=O)N(Cc2ccccc2)c2ccccc2)c1 (centres undefined)
-0.7%	.	.	-15%	O=C(CNC(=O)c1ccccc1F)OCCOc1cccc(Cl)c1
9.7%	.	.	-12%	CCOC(=O)C(C)C(C)=O (centres undefined)
-0.3%	-1%	4	1%	CCCCCNC(=O)C1CC(=O)OC12CCCCC2 (centres undefined)
-1.7%	.	.	2%	O=C(OCC(=O)c1ccccc1)C1=NN(c2ccccc2)C(=O)CC1
-0.6%	-30%	1	-1%	N#Cc1sc2nc(N3CCCCC3)c3c(c2c1N)CCCC3
?	-10%	-3	-14%	Cc1ccc(-c2noc(CN3C(C)CCCC3C)n2)cc1 (centres undefined)
-0.4%	.	.	-10%	COc1ccc2c(c1)CCC1C2CCC2(C)C(O)C(=O)CC12 (centres undefined)
-0.2%	-20%	-1	8%	CNc1nc(N)c(C(=O)C(C)(C)C)s1
-2.0%	-39%	-3	1%	COc1ccc(N(CC(=O)NCc2ccccc2)S(C)(=O)=O)cc1
-1.0%	-32%	10	1%	CCn1ccc(C(=O)Nc2ccc(N(C)C(C)=O)cc2)n1
-2.3%	.	.	0%	CCN(C(=O)CSc1nnc(-c2ccc(OC)cc2)n1C(C)C)C1CCS(=O)(=O)C1 (centres undefined)
-5.9%	1%	-3	-12%	Cc1ccc(N=C2NC(=O)/C(=C/c3cccnc3)S2)cc1C
4.3%	-3%	-4	0%	COc1ccc([N+](=O)[O-])cc1NC(=O)COC(=O)c1ccccc1C(=O)c1ccccc1
8.1%	0%	-2	25%	Cn1c(SCC(=O)NC2CCCC2)nnc1-c1ccc(S(=O)(=O)N2CCOCC2)cc1
5.2%	-13%	2	-2%	CCCN=Cc1c(CCC)[nH]n(-c2nc3ccccc3s2)c1=O
6.5%	.	.	10%	O=C1CCN(S(=O)(=O)c2cc(C(F)(F)F)ccc2Cl)CC1

# An excerpt of these results, with values under each structure.
# Values run as follows: Rango-impB inh	miR-21 FLuc	GLA inh pH 4.5	Rango dissoc inh
> O=C1CCN(S(=O)(=O)c2cc(C(F)(F)F)ccc2Cl)CC1
    6.5%	.	.	10%
> COc1ccc(N(CC(=O)NCc2ccccc2)S(C)(=O)=O)cc1
    -2.0%	-39%	-3	1%
> Cc1ccc(N=C2NC(=O)/C(=C/c3cccnc3)S2)cc1C
    -5.9%	1%	-3	-12%
> CCCN=Cc1c(CCC)[nH]n(-c2nc3ccccc3s2)c1=O
    5.2%	-13%	2	-2%

# (next part)
Rango-impB inh	miR-21 FLuc	GLA inh pH 4.5	Rango dissoc inh	SMILES
-0.8%	3%	-13	1%	CCc1cccc(Nc2c([N+](=O)[O-])cc(C(=O)N3CC(=O)Nc4ccccc43)cc2[N+](=O)[O-])c1
0.3%	-43%	9	-18%	CCC(=O)Nc1nnc(-c2cccs2)s1
0.9%	8%	2	-10%	CCOc1ccc(CSC(=N)N)cc1
-0.8%	-3%	-5	4%	Cc1nnc(SCc2nnc(-c3ccccc3)o2)n(N)c1=O
-4.3%	3%	0	-5%	COc1ccc(OCC(O)CNC(=O)c2c(-c3ccccc3)noc2C)cc1 (centres undefined)
4.0%	-12%	.	2%	COC(=O)c1cn(CC(=O)Nc2ccccc2C)c2ccccc12
?	-2%	4	?	Fc1ccc(Br)cc1C1C=C(c2cccnc2)Nc2ncnn21 (centres undefined)
4.9%	-6%	-3	11%	CCn1c(N2CCN(C(=S)NCC(C)C)CC2)nc2ccccc21
-2.4%	11%	.	1%	COc1ccccc1NC(=O)CCC(=O)Nc1cc(OC)c(NC(=O)c2cccs2)cc1OC
-0.7%	-1%	.	6%	COC(=O)Cc1ccc(NC(=S)NCc2ccc(S(N)(=O)=O)cc2)cc1
2.2%	22%	-6	4%	Cc1ccc(CSc2nnc(SCC(=O)N/N=C/c3c(C)nn(-c4ccccc4)c3C)s2)cc1
0.4%	-7%	0	-6%	CN1C(=O)c2oc3ccccc3c(=O)c2C1c1ccccn1 (centres undefined)
-3.0%	-2%	.	6%	Cn1c(CNC(=O)CNC(=O)c2ccc(C(C)(C)C)cc2)cc(=O)n(C)c1=O
?	-4%	.	?	Cc1oc2c(C)c3oc(=O)c4c(c3cc2c1C)CCCC4
0.8%	-4%	.	10%	COc1ccc(CCNC(=O)CC(Cc2ccc(C)cc2)C(=O)O)cc1OC (centres undefined)
-1.3%	-12%	.	7%	COCCN1CCN(C(=O)c2cc(COc3ccc(F)cc3Cl)on2)CC1
-1.4%	-1%	3	-3%	Cc1cc(C)c(NC(=S)N(CCN(C)C)Cc2cccs2)c(C)c1
3.0%	-3%	2	-11%	COc1ccc(C(=O)N2CCN(C(=O)CC(C)C)CC2)cc1OC
0.1%	.	.	4%	O=C(CCN1C(=O)C2CC=CCC2C1=O)Nc1nc(-c2ccc(F)c(F)c2)cs1 (centres undefined)
-0.2%	1%	.	0%	COc1ccc(-c2noc(=O)n2Cc2ccccc2F)cc1
-0.5%	-4%	.	6%	Cc1ccc(S(=O)(=O)N2CCN(C(=O)C(F)(F)F)C2c2ccc(N(C)C)cc2)cc1 (centres undefined)
0.4%	-1%	.	14%	COc1ccc(C(=O)NC(Cc2c[nH]c3ccccc23)C(=O)O)cc1 (centres undefined)
-2.2%	23%	12	-7%	Clc1ccc(CN2C3=NCCCN3c3ccccc32)cc1
-3.1%	.	.	1%	O=C(COC(=O)c1ccc(O)cc1)c1ccc(S(=O)(=O)N2CCCCC2)cc1
-2.1%	?	-3	3%	Cc1cc(C)nc(S/C=C/C(=O)c2ccccc2)n1

# High-throughput results from PubChem BioAssay.
